HPGD block: HPGD (human) dehydrogenase inhibition | P15428 | purified HPGD, NADH fluorescence kinetic, PGE2 substrate | Potency, µM, for the others: top-dose activity change, negative = inhibition, hits mostly inhibitors | 150,000 tested, 4.3% active; active = well fitted inhibition curve with a large enough effect (not every such curve was filed as active); inconclusive = small, poorly fitted or top-dose-only effect, or another doubt; inactive = no such curve, though single readings can be large or run the other way;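 further: top concentration of the series not given in the record; plate controls included wells without enzyme; inactives centre near -10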
Target sequence (P15428 whole entry, looked up): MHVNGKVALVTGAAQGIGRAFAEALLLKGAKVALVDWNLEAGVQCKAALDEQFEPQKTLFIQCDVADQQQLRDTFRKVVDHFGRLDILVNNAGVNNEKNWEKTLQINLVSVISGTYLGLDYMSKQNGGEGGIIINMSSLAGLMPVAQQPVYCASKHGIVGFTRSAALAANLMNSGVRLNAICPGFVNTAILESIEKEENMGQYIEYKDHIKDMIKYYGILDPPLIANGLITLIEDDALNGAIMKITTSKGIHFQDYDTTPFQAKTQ
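20 nM HPGD preincubated 15 min at room temperature with compound in 50 mM Tris-HCl pH 8, 0.01% Tween 20. Started with 1 mM NAD+ and 30 uM prostaglandin E2; NADH fluorescence (360/450 nm) read 5 times over 30-s intervals, last minus first.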
* marks the source's active call; other numbers are inactive results; u = inconclusive; & = joins results of further samples. On the % scale 0 is the no-effect control and ±100 the full control effect; potency means the concentration at half of the fitted maximal effect.

Structure | HPGD block
O=[N+]([O-])c1ccc(N2CCN(S(=O)(=O)c3ccccc3)CC2)cc1NCc1cccnc1 | -5%
CCCC(C)C(=O)OCC(=O)Nc1c(Br)cc(C)cc1Br (stereo unspecified) | -3%
CC1CC(C)CN(S(=O)(=O)c2ccc(NC(=O)C3COc4ccccc4O3)cc2)C1 (stereo unspecified) | -19%
COc1ccc(C2C3=C(OC(C)=O)c4ccccc4C3=Nc3c2c(=O)n(C)c(=O)n3C)cc1 (stereo unspecified) | 8%
COc1ccc(C(C)NC(=O)C2C(=O)NC3(C)CC2c2ccccc2O3)cc1 (stereo unspecified) | -13%
Cc1ccccc1Nc1nc(-c2sc(NC(=O)c3ccccc3)nc2C)cs1 | u
O=C(c1cccc2ccccc12)N1CCN(c2ccc([N+](=O)[O-])c(NCc3ccco3)c2)CC1 | -11%
CCCCC(=O)NC(=S)Nc1ccc(S(=O)(=O)N2CCCC2)cc1 | -7%
Cc1c(C2CCN(CCc3ccccc3)CC2)noc1-c1ccc(Cl)cc1 | -4%
CCOC(=O)c1ccc(NC(=O)N2CCN(C3CCCCC3)CC2)cc1 | -4%
O=C(CCCC(=O)NC1CCCC1)NC1CCCC1 | 2%
Fc1ccc(NCc2cccnc2)cc1F | -2%
O=C(O)c1ccc(S(=O)(=O)N(Cl)Cl)cc1 | -8%&-5%
Cc1cc(C)n(CCOc2nonc2N)n1 | -9%
O=C(CN1CCC(Cc2ccccc2)CC1)Nc1ccc2c(c1)OCCO2 | -8%
CC1(C)Cc2c(sc3nc(NCCN4CCOCC4)n4ncnc4c23)CO1 | -14%
O=C(O)CCN1C(=O)CC2(CCCCC2)C1=O | -9%
O=C(NNS(=O)(=O)c1ccc(Br)cc1)NC1CCCCC1 | 0%
COCc1cc(C)nc(N2CCN(c3ccccc3)CC2)c1C#N | -12%
COC(=O)c1cc(C#N)c(Oc2ccc(F)cc2)nc1C | u
COc1ccc(-n2c(SCC3CNC(=O)O3)nnc2-c2ccc(Cl)cc2)cc1 (stereo unspecified) | -4%
COc1ccccc1CNc1ccc(C(=O)O)cc1 | -8%
CC1CCC/C(=N\NC(=O)c2ccncc2)C1 (stereo unspecified) | 0%
Cc1cc(OCC(=O)O/N=C(\N)Cc2cccs2)ccc1Br | 4%
O=C(CCN1C(=O)COc2ccccc21)NCCN1CCOCC1 | -7%
O=C(Nc1ccccc1)C(=O)c1cn(CC(=O)N2CCCCC2)c2ccccc12 | u
CC(C)C(=O)Nc1c2c(nc3c1CCC3)CCCC2 | -2%
Cc1ccccc1-c1ccc(=O)n(CC(=O)Nc2ccc(C(=O)N3CCCC3)cc2)n1 | 14µM*
CCOC(=O)c1cnn(-c2ccccc2)c1NC(=O)CCl | -13%
COCCOC(=O)C1=C(C)NC(=O)NC1C1CC=CCC1 (stereo unspecified) | -5%
COc1ccccc1-c1nc2s/c(=C\c3cccs3)c(=O)n2n1 | -8%
CN(C)C(=O)c1ccc(-c2ccc3ncnc(NCc4cccnc4)c3c2)cc1 | u
COc1ccc(N(CC(=O)N/N=C/c2ccc(-c3ccc([N+](=O)[O-])cc3)o2)S(=O)(=O)c2ccc(C)cc2)cc1Cl | -10%
Nc1ccc(C(=O)OCC(=O)Nc2cc([N+](=O)[O-])ccc2F)cc1 | -7%
COC(=O)c1cccc(NC(=O)C23CC4CC(C2)CC(n2cncn2)(C4)C3)c1 | -8%
O=C1C=C(NC2CC2)C2(CCCCC2)O1 | -4%
COc1cccc(N(CC(=O)Nc2ccccc2C)S(C)(=O)=O)c1 | 0%
CCOC(=O)N1CCN(Cc2cc(=O)oc3ccc4ccccc4c23)CC1 | -23%
COc1ccc(N2CCN(C(c3ccco3)c3sc4nc(C)nn4c3O)CC2)cc1 (stereo unspecified) | -10%
COC(=O)c1ccc(C(NC(=O)OCc2ccccc2)/C(=C/[C@@H](C)C(=O)NCc2ccc(OC)c(O)c2)c2cccnc2)cc1 (stereo partly specified) | -17%
CC(C)NC(=O)C1(O)c2ccccc2NC(=O)N1c1ccc(Cl)c(Cl)c1 (stereo unspecified) | 9%
O=C(Nc1nonc1NC(=O)C1CCCCC1)C1CCCCC1 | 2%
CN(C)c1ccc(/C=N/Nc2ccc(-n3ccnc3)nn2)cc1 | -9%
CCN1CCN(c2ccc(NC(=O)COc3ccccc3Cl)cc2)CC1 | -12%
CCN(CC)C(=O)CSc1ccc(C(F)(F)F)cc1[N+](=O)[O-] | -6%
CCCCn1nnnc1SCC(=O)NCc1ccccc1 | u
COCCN1C(=O)N(C)[C@@H](c2ccccc2)C(C(C)=O)=C1C | -5%
COCCN1C(=O)N[C@@H](c2ccc(Br)cc2)C(C(C)=O)=C1C | -5%&-7%
O=C(CSCc1ccccc1Cl)NNC(=O)c1ccccc1 | -14%
Cc1c(Cl)c([N+](=O)[O-])nn1CCCC(=O)Nc1sc2c(c1C#N)CCC2 | u
COc1ccc(C)cc1N(CC(=O)O)S(=O)(=O)c1ccc(C)cc1 | 2%
CC(C)n1c(SCC(=O)Nc2ccccc2N2CCOCC2)nc2c1c(=O)n(C)c(=O)n2C | -11%
CN(C)c1ccc(C(CC(=O)O)NC(=O)c2ccc(Cl)cc2)cc1 (stereo unspecified) | -11%
CCSc1nc2c(c(=O)[nH]c(=O)n2C)n1C | -18%
COc1ccc(-c2cc(C(F)(F)F)nc(S(C)(=O)=O)n2)cc1OC | u
O=C(CSc1nc(-c2ccco2)cc(C(F)(F)F)n1)N1CCSCC1 | 2.5µM*
Cc1ccccc1OCc1nc2c3cnn(C)c3ncn2n1 | -13%
CCCOC(=O)Nc1ccc(N2CCCCC2)cc1 | u
CCOc1cccc(-c2nnc3sc(-c4cc(OC)c(OC)cc4OC)nn23)c1 | -11%
COc1ccc(Cn2c(C)c(C)c(C#N)c2NC(=O)Nc2ccc(Cl)cc2)cc1 | -3%

Another view of part of the listing above.
SMILES: COc1ccc(C2C3=C(OC(C)=O)c4ccccc4C3=Nc3c2c(=O)n(C)c(=O)n3C)cc1 (stereo unspecified)
- HPGD block: 8%
SMILES: COc1ccc(C(C)NC(=O)C2C(=O)NC3(C)CC2c2ccccc2O3)cc1 (stereo unspecified)
- HPGD block: -13%

Further compounds.
Structure | HPGD block
C/C(=N/OCO/N=C(/C)c1ccc(F)cc1)c1ccc(F)cc1 | -16%
Clc1cccc(N2CCN(Cc3nc(-c4ccccc4)no3)CC2)c1 | -5%
CC(=O)Oc1ccc(-c2cccc(C(=O)OCC(=O)Nc3ccccc3Oc3ccccc3)c2)cc1 | -5%
CCOC(=O)CNC(=O)CN1C(=O)CCSc2ccccc21 | -10%
OCl | -14%
CNC(=S)N1N=C(c2ccc(C)cc2)CC1c1ccc(OC)c(OC)c1 (stereo unspecified) | -25%
CSc1nc(Oc2ccc(=O)n(C)n2)nc(N(C)C)n1 | -14%
CS(=O)(=O)N(CC(=O)N1CCN(c2ccccc2)CC1)c1cc(C(F)(F)F)ccc1Cl | -20%
COc1ccc2oc(=O)c(-c3nnc(NCc4ccco4)s3)cc2c1 | -15%
COc1ccc(C(C)C)cc1S(=O)(=O)Nc1ccccn1 | u
CCOC(=O)NNC(=O)c1ccc(Cl)cc1 | -6%
Cc1ccc(C)n1-c1cc(S(=O)(=O)N2CCOCC2)ccc1N1CCCC1 | u
CCN(CC)S(=O)(=O)c1ccc(NC(=O)c2ccc(CN3CCOCC3)cc2)cc1 | 3%
O=C(Nc1ncccn1)C1c2ccccc2Oc2ccccc21 | -12%
CC(NC(=O)c1ccc(Cl)s1)C1CCCO1 (stereo unspecified) | -6%
Cc1cc(=O)oc(C)c1C(=O)N1CCc2c([nH]c3ccccc23)C1C(C)C (stereo unspecified) | -1%
CCOc1ccc(N(C(C)C(=O)N/N=C(\C)c2cccc(NC(=O)c3ccccc3)c2)S(C)(=O)=O)cc1 (stereo unspecified) | -15%
O=C(Cn1cc2c(n1)CCCC2)N1CCCC1 | -5%
Cc1cc(C)n(Cc2ccc(C(=O)NCCC3=CCCCC3)o2)n1 | -12%
COc1ccccc1-c1nc(-c2ccc(Br)cc2)no1 | -8%
COC(=O)c1cccnc1NC(=S)NNC(=O)c1ccncc1 | -8%
S=C(Nc1ccccc1Cl)N(CCCN1CCOCC1)Cc1ccco1 | 0%
Cc1ccc(Nc2c(-c3ccco3)nc3ccccn23)cc1 | u
CCOC1(C)OCC(=O)[C@]2(CCC3C4CCC5=CC(=O)C=CC5(C)C4C(=O)CC32C)O1 (stereo partly specified) | 2%
CCN(C(=O)Cc1ccccc1OC)c1nnc(-c2ccncc2)s1 | -10%
O=C(CSc1nnc(-c2ccccc2)c(-c2ccccc2)n1)Nc1ccc(Br)cn1 | -12%
O=C(COc1ncnc2c(Cl)cc(Cl)cc12)NCCC1=CCCCC1 | -9%
CCCc1nn(C)c(C(=O)Nc2cccc3ccccc23)c1Cl | -11%
Cn1c(SCC(=O)Nc2nccs2)nnc1-c1ccc(S(=O)(=O)N2CCCC2)cc1 | 3%
Cc1c(Cl)cccc1NC(=S)/C(=C(\[O-])c1ccc(Cl)s1)[n+]1ccccc1 | u

7 neighbouring records from above, for reference:
Structure | HPGD block
CCOC1(C)OCC(=O)[C@]2(CCC3C4CCC5=CC(=O)C=CC5(C)C4C(=O)CC32C)O1 (stereo partly specified) | 2%
CCN(C(=O)Cc1ccccc1OC)c1nnc(-c2ccncc2)s1 | -10%
O=C(CSc1nnc(-c2ccccc2)c(-c2ccccc2)n1)Nc1ccc(Br)cn1 | -12%
O=C(COc1ncnc2c(Cl)cc(Cl)cc12)NCCC1=CCCCC1 | -9%
CCCc1nn(C)c(C(=O)Nc2cccc3ccccc23)c1Cl | -11%
Cn1c(SCC(=O)Nc2nccs2)nnc1-c1ccc(S(=O)(=O)N2CCCC2)cc1 | 3%
Cc1c(Cl)cccc1NC(=S)/C(=C(\[O-])c1ccc(Cl)s1)[n+]1ccccc1 | u

Remaining list, next part.
Structure | HPGD block
Cc1nc(SCC(=O)Nc2ccc3c(c2)OCO3)c(C#N)c2c1CCCC2 | u
CCOC(=O)C1C(=O)CC(C)(O)C(C(=O)OCC)C1c1ccc(F)cc1 (stereo unspecified) | 1%
Cn1c(=O)c2c(nc(NCc3ccco3)n2C/C=C/c2ccccc2)n(C)c1=O | -5%
CC(=O)NCC12CC3CC(C1)CC(C(=O)O)(C3)C2 | -8%
Cc1cc2c(nc1C)CCCN2C[C@@H](C)O/N=C1/[C@H]2CCn3c(=O)n(-c4ccccc4)c(=O)n3[C@H]2[C@H](O)[C@@H]2O[C@H]12 | u
O=C(Cn1ccc([N+](=O)[O-])n1)Nc1nccs1 | -11%
CSc1nnc([C@@H](NC(=O)OC(C)(C)C)C(C)C)o1 | -2%
CCOC(=O)N1CCN(C(=O)CN(c2ccc(OC)cc2)S(C)(=O)=O)CC1 | -9%
CC(C)NC(=O)CSCc1c(F)cccc1Cl | 16µM*
O=S(=O)(c1cc(Cl)ccc1Cl)n1nnc2ccccc21 | -17%
COC(=O)c1ccc(S(=O)(=O)N2CCCC2)o1 | -3%
CCOc1ccc(-c2[nH]ncc2Oc2cccc(OC)c2)c(O)c1 | -20%
CCOc1ccc(N/C(=C(/C(Cl)=C(Cl)Cl)[N+](=O)[O-])n2cncn2)cc1 | u
COc1ccc(-n2nnc3c(SCC(=O)N4CCN(c5ccccc5)CC4)ncnc32)cc1 | -2%
OCCN1CC(O)C(O)C(O)C1CO (stereo unspecified) | -11%
COc1cccc(C(=O)N2CCN(Cc3cc(Br)ccc3OC)CC2)c1 | -3%
O=C(NCc1cn2ccsc2n1)Nc1ccc(Cl)cc1 | -24%
O=C(OCc1nnc(-c2ccccc2)o1)c1ccc2c(c1)OCCO2 | 7.9µM*
O=C(O)Cc1sc(N/N=C\c2ccccc2)nc1-c1ccccc1 | u
CC1=CC(C)C2C(=O)N(O)C(=O)C2C1 (stereo unspecified) | 2%
O=C(Nc1ccc2oc(-c3ccc4ccccc4c3)nc2c1)c1cccs1 | u
CCOC(=O)CSc1nc2c(cnn2-c2ccc(C)cc2)c(=O)[nH]1 | -12%
S=C(Nc1ccccc1Cl)N1CCCCC1 | -8%
O=C(c1ccccc1)N1CN2CN(C(=O)c3ccccc3)CC([N+](=O)[O-])(C2)C1 | 8%
N#Cc1ccc(Oc2cc(C(F)(F)F)nc(-c3ccccn3)n2)cc1 | -1%
CCOC(=O)C(NC(=O)C1CCCN1C(=O)OCc1ccccc1)C(=O)OCC (stereo unspecified) | -9%
Cc1ccc2c(c1)sc1nc(=O)n(-c3cccc(Cl)c3)c(=O)n12 | -15%
CCCC12CN3CCN(CC(C3)/C1=N\NC(=O)c1ccccc1N)C2 | u
C=CCSc1nnc(-c2cc(Br)ccc2N)c(=O)[nH]1 | -12%
CCCn1c(=O)c2c(nc(Br)n2CCC)n(C)c1=O | -16%
Cc1ccc(Cn2ncn3c(cc4ccccc43)c2=O)cc1 | u
Cn1c(C(C(=O)NCC2CCCO2)N(CCc2ccccc2)C(=O)Cn2nnc3ccccc32)nc2ccccc21 (stereo unspecified) | -13%
CCOC(=O)N1CCN(C(=O)c2ccc(N(Cc3ccccc3)S(C)(=O)=O)cc2)CC1 | -7%
CCC(C)(C(=O)NC1CCCCC1)N(Cc1ccco1)C(=O)Cc1cccs1 (stereo unspecified) | -15%
Cn1c(SCC(=O)N2c3ccccc3Sc3ccccc32)nnc1-c1ccco1 | -20%

These rows are one share of the data; count on the stated rates, not on these rows.
